# StopGo RLuc: Primary qHTS Assay for Foot and Mouth Disease Virus Antivirals against NCGC Sytravon and CBC Compound Libraries: Renilla Luciferase Signal; HEK cells with a luciferase reporter of 2A StopGo recoding; Potency, µM (highest dose often 57.5 µM), for inactives: at the top dose signal change, negative = less light; 0.32% of 120,000 active; AID 1745857, 2022; active means well fitted falling curve with a large enough effect; inconclusive means small, poorly fitted or top-dose-only effect; inactive means no such curve, though single readings can be large or run the other way; also: nearly all actives have a fitted effect of over 55% in size; overnight with compound
# StopGo FLuc: Primary qHTS Assay for Foot and Mouth Disease Virus Antivirals against NCGC Sytravon and CBC Compound Libraries: Firefly Luciferase Signal; 0.23% of 120,000 active; Potency, µM (doses to about 57.5 µM), for the others: at the top dose signal change, negative = less light; HEK cells with a luciferase reporter of 2A StopGo recoding; AID 1745856, 2022; active = well fitted falling curve with a large enough effect; inconclusive = small, poorly fitted or top-dose-only effect; inactive = no such curve, though single readings can be large or run the other way; also: nearly all actives have a fitted effect of over 60% in size; overnight with compound
# Numbers without * were called inactive; ? = inconclusive; [ ] = dose if it differs, or a comment. % is scaled to controls: 0 for no effect and ±100 for the full control effect; potency is read from the fitted curve at half-maximal effect.
# Start of the data: the first 2 records, to show the layout:
mol | StopGo RLuc | StopGo FLuc
CC(C)CC(=O)N(Cc1ccccc1)S(=O)(=O)c1ccc2c(c1)oc(=O)n2C | 150%[activator] | 14%
C=CCNC(=O)CN1CCN(c2nc(-c3ccccc3)c3ccccc3n2)CC1 | -9% | ?

# The list itself (from the top)
mol | StopGo RLuc | StopGo FLuc
CC(C)CC(=O)N(Cc1ccccc1)S(=O)(=O)c1ccc2c(c1)oc(=O)n2C | 150%[activator] | 14%
C=CCNC(=O)CN1CCN(c2nc(-c3ccccc3)c3ccccc3n2)CC1 | -9% | ?
COc1ccc(Nc2nc(N)c(C(=O)c3ccc(OC)c(OC)c3)s2)cc1 | 112%[activator] | 148%[activator]
Cc1cc(C)c(Cn2c3ccccc3c3cnn(CC(=O)NCc4ccc(Cl)cc4)c(=O)c32)c(C)c1 | -5% | -2%
CCOC(=O)C1=C(C)NC(C)=C(C(=O)OC)C1c1cccc([N+](=O)[O-])c1 (stereo not given) | -8% | -15%[11.5 µM]
Cc1cc(=O)[nH]c2nnc(SCC(N)=O)n12 | -2% | -14%
CCOC(=O)c1c(C)c(C(=O)Nc2ccc(F)c(Cl)c2)c(C)n1C | 3% | 95%[activator]
COc1cccc(CNC2CCCC2)c1OCc1ccccc1F | -5% | -8%
Cc1cc(C)cc(NC(=O)Cn2cc(S(=O)(=O)NC(C)(C)C)c(S(=O)(=O)NC(C)(C)C)c2)c1 | 4% | -10%
CCCCCCC(C)Oc1ccc(-c2ccc(-c3ccc(CCCCC)cc3)nc2)cc1 (stereo not given) | 7% | 10%
CSc1ccccc1C(=O)Nc1ccccc1Sc1ccccc1 | 63%[activator] | 9%
Cc1ccc(NC(=O)CSc2nnc3scc(-c4ccccc4)n23)cc1 | 47%[activator] | 6%
COc1ccc(-c2nnc(SCC(=O)NC(C)c3ccc4c(c3)CCCC4)o2)cc1 (stereo not given) | 94%[activator] | 25%
Cc1ccc(NC(=O)c2ccc(NC(=O)C3=CSCCO3)cc2)cc1C | -5% | 74%[activator]
O=C(CCc1c[nH]c2ccccc12)NCCCN1CCCCC1 | -7% | 2%
COc1ccc(OC)c(CNC(=O)c2ccc(NC(=O)c3nsc4ccccc34)cc2)c1 | 10% | -7%
Cc1cc(C)c2nc(SCC(=O)NC(N)=O)cc(C)c2c1 | -1% | -2%
Cc1ccc(NC(=O)CCc2cc(C(C)(C)C)c(O)c(C(C)(C)C)c2)cc1 | ? | ?
CCc1ccc(NC(=O)C2CCCN(S(=O)(=O)c3ccc4c(c3)oc(=O)n4C)C2)cc1 (stereo not given) | 11% | 11%
CC(C)CNC(=O)/C=C/c1ccc(C(C)C)cc1 | 17% | 194%[activator]
COc1cc2c(cc1OC)CN(C(=O)[C@H](C)N[C@@H](CCc1ccccc1)C(=O)O)[C@H](C(=O)O)C2 | -8% | -10%[11.5 µM]
COc1cc(/C=N/OCCOc2ccc(C)cc2)cc(Cl)c1OC | 1% | -5%
Cc1ccc(NS(=O)(=O)c2ccc3c(c2)NC(=O)CCS3)cc1F | 351%[activator] | 9%
O=C(Cc1ccccc1)N(CC1CCOC1)C1CC1 (stereo not given) | -12% | 0%
Cn1c(=O)c2sccc2n2c(CCCC(=O)Nc3ccc(Oc4ccccc4)cc3)nnc12 | -11% | -15%
Cc1ccc2oc(-c3ccc(NC(=O)c4cccc(F)c4)c(C)c3)nc2c1 | 1% | 67%[activator]
NC(=O)c1ccc(CN(C(=O)Cc2cccc(C(F)(F)F)c2)C2CC2)cc1 | 50%[activator] | 26%
N#Cc1nc(COc2ccc(-c3ccccc3)cc2)oc1N1CCOCC1 | -14% | 13%
COc1ccc(N2CCN(c3ccc(-c4nc(-c5cccc(C)c5)no4)cc3[N+](=O)[O-])CC2)cc1 | -9% | 41%[activator]
COc1ccc(-c2coc3cc(OC)ccc3c2=O)cc1 | 9% | 122%[activator]
COC(=O)c1ccccc1NC(=O)Cn1c(=O)n(CCCCC(=O)NCc2ccc3c(c2)OCO3)c(=O)c2ccccc21 | -3% | -3%
COc1ccc(Nc2ncnc3scc(-c4ccc(F)cc4)c23)cc1 | 8% | -13%
Cc1ccc(NC(=O)c2ncoc2-c2ccco2)c(Cl)c1 | 5% | 22%
O=C(CC12CC3CC(CC(C3)C1)C2)Nc1ccc(F)c(Cl)c1 | ? | ?
Cc1ccc(-n2nc(-c3noc(C(=O)NCc4ccc(C)o4)n3)c(=O)n(C)c2=O)cc1 | 2% | 7%
O=C(O)C(c1c[nH]c2ccc(Br)cc12)N1CCN(CCOc2ccc(Cl)cc2)CC1 (stereo not given) | -15% | -18%
Cc1ccc(NC(=O)CSc2ncnc3c2sc2ccccc23)cc1C | -12% | -6%
COc1ccccc1Nc1nn2c(=O)c3ccc(C(=O)NCc4cccs4)cc3nc2s1 | -1% | 3%
O=C(CN1CCN(C(=O)c2nn(Cc3ccccc3)c(=O)c3ccccc23)CC1)Nc1ccc(F)cc1 | 0% | 29%
CCOc1ccc(C(=O)N2CC(=O)Nc3ccc(C)cc3C2c2ccccc2)cc1 (stereo not given) | 134%[activator] | 21%
CCOc1cc2c(cc1NC(=O)CCC(=O)c1ccccc1)OC(C)C2 (stereo not given) | 26% | 1%
Cc1[nH]c2ccc(Br)cc2c1C(=O)CCl | 4% | 10%
CSc1nnc(-c2ccccc2NC(=O)c2cccc(S(=O)(=O)N3CCCCC3)c2)o1 | 6% | 6%
Cc1ccc(S(=O)(=O)N(CC(=O)N2CCC(C(N)=O)CC2)c2cccc(C(F)(F)F)c2)cc1 | 191%[activator] | 87%[activator]
C=Cc1ccc(COc2ccc3c(=O)c(-c4ccccc4OC)coc3c2)cc1 | 2% | 20%
CCOc1ccc(S(=O)(=O)N2CCN(c3cc(Cl)ccc3Cl)CC2)c2ccccc12 | 34%[activator] | -2%
CCCC(=O)Nc1ccc(Cl)c(NC(=O)c2cc(OCC)c(OCC)c(OCC)c2)c1 | 4% | 4%
N#Cc1nc(-c2ccco2)oc1N1CCN(C(=O)CCCN2C(=O)NC3(CCCC3)C2=O)CC1 | 0% | 28%
c1ccc2c(c1)Nc1ccccc1S2 | 3% | 17%
CCCn1nc(C(=O)NC(C)c2cccs2)c2ccccc2c1=O (stereo not given) | 0% | 2%
CCOc1cc(/C=C2\NC(=O)NC2=O)cc(Br)c1OCc1cccc2ccccc12 | 2% | 6%
Cc1ccc(-n2nc(C(=O)NCCN(C)C)c(=O)n(C)c2=O)cc1 | -7% | 2%
FC(F)(F)c1cc(Nc2nc3ccccc3c3nncn23)ccc1Cl | -13% | -14%
O=C(CSc1nc(C(F)(F)F)nc2ccccc12)NC1CCCCCC1 | 1% | 10%
COc1cccc(C(=O)Nc2ccccc2-c2nnc(-c3cccc(OC)c3)o2)c1 | -2% | 57%[activator]
COC(=O)c1ccc(NC(=O)COc2ccc3c(C)cc(=O)oc3c2)cc1 | 4% | 15%

# Random excerpt: 5 compounds from above.
mol | StopGo RLuc | StopGo FLuc
CCOc1cc(/C=C2\NC(=O)NC2=O)cc(Br)c1OCc1cccc2ccccc12 | 2% | 6%
Cc1ccc(-n2nc(C(=O)NCCN(C)C)c(=O)n(C)c2=O)cc1 | -7% | 2%
O=C(CSc1nc(C(F)(F)F)nc2ccccc12)NC1CCCCCC1 | 1% | 10%
c1ccc2c(c1)Nc1ccccc1S2 | 3% | 17%
CCCn1nc(C(=O)NC(C)c2cccs2)c2ccccc2c1=O (stereo not given) | 0% | 2%

# (more compounds)
mol | StopGo RLuc | StopGo FLuc
Cc1cc(C)c(NC(=O)CCN2CCCCC2)c(C)c1 | 3% | -5%
CCc1ccc(OCc2nn3c(=O)c4ccccc4nc3s2)cc1 | 1% | 179%[activator]
Cc1cc(=O)oc2cc(OCC(=O)c3ccc(OC(F)F)cc3)ccc12 | 3% | 5%
Cc1cc2oc(=O)cc(CN3CCCCCC3)c2cc1C(C)C | 6% | 13%
Oc1ccccc1C=Nc1ccc(Cl)cc1C(F)(F)F | -1% | -3%
COc1ccc(C(=O)Nc2cccc(-c3cn4ccsc4n3)c2)cc1OC | -13% | 55%[activator]
N#Cc1ccccc1NC(=O)C(=O)NCC(c1ccc2c(c1)OCO2)N1CCN(c2ccccc2)CC1 (stereo not given) | 10% | -8%
CC(NC(=O)C(c1ccccc1)c1ccccc1)C1CC2CCC1C2 (stereo not given) | 10% | 0%
CC(NCc1ccco1)C(O)c1ccccc1 (stereo not given) | 3% | 5%
CC1CCN(c2cc3c(cc2F)c(=O)c(S(=O)(=O)c2ccc(Cl)cc2)cn3C)CC1 | -9% | -3%
CCOc1ccccc1NC(=O)CCc1c[nH]c2ccccc12 | 8% | 5%
CCOC(=O)C(=O)Nc1cccc(OC)c1 | -3% | 0%
CCN1CCN(CCOc2ccc3c(=O)c(-c4ccc(Br)cc4)coc3c2)CC1 | ? | 37%[activator]
Cc1ccc(CCNC(=O)c2nn(C)c3c2CS(=O)(=O)c2ccccc2-3)cc1 | 36%[activator] | -6%
CCCCN(Cc1ccccc1)c1ccc(C(=O)O)cc1NS(=O)(=O)c1ccc(C)cc1C | 37%[activator] | 27%
CCCCCCCn1c(N(C)C)nc2c1c(=O)[nH]c(=O)n2C | 29% | 20%

# Next compounds.
mol,StopGo RLuc,StopGo FLuc
CCOC(=O)c1cccc(NC(=O)NCc2c(-n3cccc3)sc3c2CCN(CC)C3)c1,-2%,-3%
O=C(CCCN1C(=O)c2cccnc2Oc2ccc(Cl)cc21)NCc1ccc(F)cc1,9%,0%
COc1cccc(-c2ccc3c(N)c(C(=O)Nc4cc(C(F)(F)F)ccc4OC)sc3n2)c1,-7%,97%[activator]
Brc1ccc(-c2noc(-c3cccc4ccccc34)n2)cc1,6%,149%[activator]
Cc1ccc(-n2ccnc(NCCc3ccc(S(N)(=O)=O)cc3)c2=O)cc1C,?,?
Cc1cc(OCn2ccc(C(=O)NN3CCOCC3)n2)ccc1Cl,-16%,-11%
O=C(NCc1ccco1)c1cc2cc(Cl)ccc2[nH]1,28%,39%[activator]
CCN1CCC2(CC1)N=C(SCC(=O)Nc1cc(F)ccc1F)C(c1ccc(F)cc1)=N2,-24%,-16%
CC(C)(C)C(=O)COC(=O)C1(S(=O)(=O)c2ccc(Br)cc2)CCCC1,3%[1.06 µM],10%
O=C(O)CCC(=O)N1N=C(c2ccsc2)CC1c1ccc2nccnc2c1 (stereo not given),-10%,11%
O=C(NCCc1cccc2cccnc12)NC1CCN(CC2CCCCC2)CC1,-15%,-7%
CSc1nnc2n(-c3ccccc3)c(=O)c3c4c(sc3n12)COC(C(C)C)C4 (stereo not given),-17%,-7%
O=C(CN1CCN(C(=O)c2nn(-c3ccccc3)c(=O)c3ccccc23)CC1)N1CCOCC1,-4%,-5%
CCN(CC)S(=O)(=O)NCc1ccnc(OCc2ccccc2)c1,26%,16%
Cc1ccc2onc(CC(=O)Nc3cc(F)ccc3F)c2c1,24%,61%[activator]
O=C(NCCc1ccc(Cl)cc1)c1ccc2c(Cl)c3c(nc2c1)CCCC3,6%,22%
CCOc1ccccc1N1CC(c2nc3ccccc3n2CCCOc2ccc(OC)cc2)CC1=O (stereo not given),-11%,-15%
Cc1occc1-c1nnc(SC(C(=O)NCc2cccnc2)C(C)C)o1 (stereo not given),-1%,-8%
COc1ccc(Nc2nc(NCC(C)O)nc3c2cnn3-c2ccccc2)cc1 (stereo not given),29%,92%[activator]
COC(=O)c1ccc(NC(=O)C2CCN(c3ncnc4c3nc3n4CCCCC3)CC2)cc1,-6%,-7%
O=C1CC(c2nnc(Cc3ccccc3Cl)o2)CN1c1ccccc1 (stereo not given),26%,-8%
Cc1cccc(-n2cnc3cc(C(=O)NCc4ccccc4Cl)ccc32)c1,178%[activator],0%
O=c1cc(N2CCCN(c3ccc(C(F)(F)F)cn3)CC2)nc2ccccn12,?,?
CC(C)(CNC(=O)C1C2CCC(C2)C1C(=O)O)CNC(=O)C1C2CCC(C2)C1C(=O)O (stereo not given),8%,8%
CCOC(=O)c1c(N)n(-c2cccc(C)c2C)c2nc3ccccc3nc12,-2%,-5%
COc1ccc(S(=O)(=O)NCCSc2nnnn2-c2ccccc2)cc1,137%[activator],-21%
O=C(NCC12CC3CC(CC(C3)C1)C2)c1n[nH]c(=O)c2ccccc12,3%,19%
CCOc1ccc(-c2cc(-c3nc(-c4ccccn4)no3)[nH]n2)cc1,6%,20%
CCCCCn1nc(C(=O)Nc2ccc(C)c(Cl)c2)c2ccccc2c1=O,1%,5%
CCOc1cc(-c2noc(-c3ccccc3)n2)ccc1OCC(=O)NC(C)C,?,?
CC(c1nc2ccccc2s1)N(C)C(=O)c1cccc(S(=O)(=O)Nc2cccc(Cl)c2)c1 (stereo not given),-24%,?
CCCNC(=O)NC(=O)CSc1nc2ccccc2c(=O)n1CC1CCCO1 (stereo not given),-1%,13%
O=C(NCc1ccccc1)c1nn(-c2ccccc2)nc1CO,4%,?
NCC12CC3CC(CC(O)(C3)C1)C2,-6%,-3%
Cc1cccc(CC(=O)N2CC(=O)Nc3ccc(F)cc3C2c2ccccc2)c1 (stereo not given),37%[activator],-7%
Cc1ccc(CNC(=O)C2CCN(C(=O)c3ccc(-n4ccc5ccccc54)s3)CC2)cc1,-2%,11%
COc1ccc(CNC(=O)Cn2nc3c(cc2=O)CCCC3)cc1,-3%,-2%
COc1ccc(Br)cc1CNC(=O)Cn1c(=O)c2cccn2c2ccc(F)cc21,-2%,-13%
COc1ccc(CNC(=O)c2ccc3c(O)c(S(=O)(=O)c4ccccc4)c(=O)[nH]c3c2)cc1,-12%,-13%

# An unsorted share of the library; overall some 0.53% were active at least once.
